2A firefly: Primary qHTS Assay for Foot and Mouth Disease Virus Antivirals against NCGC Sytravon and CBC Compound Libraries: Firefly Luciferase Signal. AID 1745856, 2022. actives 0.23% (n = 120,000). HEK cells with a luciferase reporter of 2A StopGo recoding. Potency, µM (titrated, usually from 57.5 µM), inactives show at the highest dose signal change, negative = less light; active = well fitted falling curve with a large enough effect; inconclusive = small, poorly fitted or top-dose-only effect; inactive = no such curve, though single readings can be large or run the other way; also: nearly all actives have a fitted effect of over 60% in size; overnight with compound
StopGo RLuc: Primary qHTS Assay for Foot and Mouth Disease Virus Antivirals against NCGC Sytravon and CBC Compound Libraries: Renilla Luciferase Signal. AID 1745857, 2022. actives 0.32% (n = 120,000). Potency, µM (top dose mostly 57.5 µM), without a hit: top-dose signal change, negative = less light. HEK cells with a luciferase reporter of 2A StopGo recoding; active means well fitted falling curve with a large enough effect; inconclusive means small, poorly fitted or top-dose-only effect; inactive means no such curve, though single readings can be large or run the other way; also: nearly all actives have a fitted effect of over 55% in size; overnight with compound
Starred values were filed as active, the others as inactive; u = inconclusive; [ ] = another dose, or the depositor's remark. % is scaled to controls: 0 for no effect and ±100 for the full control effect; potency is read from the fitted curve at half-maximal effect.

SMILES | 2A firefly | StopGo RLuc
CCN(CC)S(=O)(=O)c1ccc(NS(=O)(=O)c2ccc3ccccc3c2)cc1 | 8.5% | 416.5%[activator]
COc1cc(CNCCSc2nnnn2C)cc(Cl)c1OCc1ccccc1 | 6.6% | 1.6%
CCc1c(C)sc(NC(=O)c2cc(-c3ccc(C)cc3C)nc3ccccc23)c1C#N | 5.3% | -2.0%
Cc1oc(-c2ccccc2)nc1C(=O)Nc1nc(C(C)C)cs1 | 60.4%[activator] | -7.1%
COC(=O)c1c(COc2cccnc2[N+](=O)[O-])nc2ccccc2c1C | 18.0% | 4.4%
O=C(CCc1c[nH]c2ccccc12)NC1(c2ccccc2)CCC1 | -8.1% | -6.0%
Cn1nnnc1NCc1ccc(-c2ccc(Cl)cc2)o1 | 0.0% | 275.2%[activator]
Cc1nc2cc(NC(C)C(=O)Nc3ccc(Cl)cc3Cl)ccc2o1 (stereo not given) | 23.5% | 12.8%
Cc1[nH]c(=O)[nH]c(=O)c1S(=O)(=O)N1CCN(c2ccccc2Cl)CC1 | -10.8% | -10.1%
Cc1ccc2c(=O)cc(C(=O)Nc3ccc(S(=O)(=O)N4CCCC(C)C4)cc3)oc2c1 (stereo not given) | -1.7% | -4.7%
c1ccc(CNCCN2CCCC2)nc1 | -0.5% | 3.3%
O=C(CN1C(=O)COc2ccc(S(=O)(=O)NC3CCCC3)cc21)Nc1ccc(F)c(Cl)c1 | -18.2% | 128.5%[activator]
CCOc1ccc(CCNC(=O)C2CCN(C(=O)N3CC(CC)Oc4ccccc43)CC2)cc1 (stereo not given) | -17.7% | -5.5%
COc1ccc(-c2nc(SCCOc3ccccc3Cl)n3[nH]c(=O)cc3n2)cc1 | -2.2% | 3.7%
CC(C)(C)c1ccc2c(c1)OCCOCCOCCO2 | 22.9% | -0.2%
Cc1[nH]c2ccccc2c1C(=O)C(=O)NCC(=O)N(C)C | 0.7% | -3.7%
N#CCCNc1ccc2c(c1)OCCO2 | 8.6% | 9.5%
CN(C)c1ccc(NC(=O)CN2CCN(c3ccc([N+](=O)[O-])c4cnccc34)CC2)cc1 | -12.8% | -14.4%
CCOC(=O)N1CCN(C(=O)c2cc(-c3ccccn3)nc3ccccc23)CC1 | 59.5%[activator] | 52.0%[activator]
COc1ccccc1CNC(=O)c1cc2cccc3c2n1CCS3 | -4.7% | -4.3%
CCCCOc1ccc(C(=O)OCC(=O)c2cccs2)cc1 | 38.8%[activator] | 3.9%
CCCCNC(=O)NC(c1ccccc1)c1ccccn1 (stereo not given) | 7.3% | 15.1%
Clc1ccc(CSc2nncn3c2cc2occc23)cc1 | -0.5% | -5.2%
O=C(CN1CCN(C(=O)c2ccc(OCC(F)(F)F)nc2)CC1)Nc1ccc(F)cc1 | 32.8%[activator] | 16.9%
COc1ccc(C[N+]2=C(N)NC3=C(C)Cn4c(=O)n(-c5ccccc5)c(=O)n4C3C2)c(OC)c1 (stereo not given) | -5.6% | -12.3%
Cc1nc(Oc2ccc3ccc(=O)oc3c2)c2c3c(sc2n1)CC(C)CC3 (stereo not given) | 9.2% | 4.9%
COc1cc(C(=O)Nc2ccc3oc(C)nc3c2)cc(OC)c1Br | 121.7%[activator] | 9.0%
COc1ccc(Cl)cc1C(=O)Nc1ccc(C(C)(C)C)cc1 | 37.5%[activator] | 14.0%
O=C(Cn1c(=O)c2c(ncn2C2CCCC2)n(Cc2ccccc2)c1=O)NC1CCS(=O)(=O)C1 (stereo not given) | 3.8% | -5.7%
COc1ccc(OCCCN)cc1 | 7.9% | 0.1%
COC(=O)CCn1cnc2onc(-c3cc(F)cc(F)c3)c2c1=O | 147.4%[activator] | 74.8%[activator]
O=C(Nc1cccc(O)c1)c1noc2c1CCc1ccccc1-2 | 0.0% | -9.7%
Cc1ccc(S(=O)(=O)Nc2nc3ccccc3nc2Nc2cccc(C(=O)O)c2)cc1C | 19.1% | 42.7%[activator]
CNC(=O)NC(=O)C(C)Sc1ncc(-c2ccc(F)cc2)n1CC(C)C (stereo not given) | u | u
COc1ccc(C2C(=O)N(C3CCCCC3)CC(=O)N2C2CCCCC2)cc1 (stereo not given) | -6.4% | -15.3%
CC(C)c1ccc(Nc2ncnc3c2nc2n3CCCC2)cc1 | -24.3% | u
C[C@H](NC(=O)Cn1ccc2cc(OCc3ccccc3)ccc21)C(=O)O | 124.4%[activator] | 16.1%
Cc1cccc(S(=O)(=O)N2CCN(c3ccc(Nc4ccccc4)nn3)CC2)c1 | 9.0% | 4.9%
CCCCCCn1c(N2CCN(c3cccc(Cl)c3)CC2)nc2c1c(=O)[nH]c(=O)n2C | 14.2% | 6.6%
Cc1cc(C)c2nc(N3CCCC(C(=O)NCc4cccc(Br)c4)C3)sc2c1 (stereo not given) | 2.9% | -3.1%

Profiles from above.
Cc1ccc(S(=O)(=O)Nc2nc3ccccc3nc2Nc2cccc(C(=O)O)c2)cc1C across the screens: 2A firefly: 19.1%; StopGo RLuc: 42.7%[activator]
CCCCOc1ccc(C(=O)OCC(=O)c2cccs2)cc1 across the screens: 2A firefly: 38.8%[activator]; StopGo RLuc: 3.9%

3 compounds picked at random from the list so far:
SMILES | 2A firefly | StopGo RLuc
COc1ccc(C2C(=O)N(C3CCCCC3)CC(=O)N2C2CCCCC2)cc1 (stereo not given) | -6.4% | -15.3%
Cc1ccc(S(=O)(=O)Nc2nc3ccccc3nc2Nc2cccc(C(=O)O)c2)cc1C | 19.1% | 42.7%[activator]
CCCCCCn1c(N2CCN(c3cccc(Cl)c3)CC2)nc2c1c(=O)[nH]c(=O)n2C | 14.2% | 6.6%

Remaining list, next part:
SMILES | 2A firefly | StopGo RLuc
O=C(O)CSC(SCC(=O)O)c1ccc(Cl)cc1 | 5.6% | 5.0%
COc1cc(NC(=O)c2nc3nc(C)cc(C(F)F)n3n2)cc(OC)c1OC | 7.8% | 9.1%
Cc1cc(C(F)(F)F)nn1Cc1nc2c3c4c(sc3ncn2n1)CCC4 | -9.9% | -10.2%
CC(C)Sc1ncc(Cl)c(C(=O)Nc2nnc(C(C)C)s2)n1 | -15.2% | 23.9%
Cc1ccc(Sc2ccc(Cl)nn2)cc1 | 32.4%[activator] | 18.5%
O=Cc1ccc(OCc2ccccc2)c(Cl)c1 | 302.8%[activator] | 26.4%
CCOc1ccc(Oc2nc(NCC(C)C)nc(NC(C)(C)C)n2)nn1 | 42.8%[activator] | 69.9%[activator]
O=C1[C@@H]2CSC(c3ccc(Cl)cc3)N2C(=O)N1c1ccccc1 (stereo not given in full) | -11.4% | -8.3%
N#CCCc1nc2ccccc2s1 | 0.0% | 15.5%
COCCn1cnnc1SC(C)C(=O)c1cccc(Cl)c1 (stereo not given) | -1.0% | -3.6%
COc1cc(OC)c(NC(=O)c2ncoc2-c2ccc(OC)c(OC)c2)cc1Cl | -9.4% | -10.0%
COc1ccc(CCN2C(=O)CN(C3CCC(C)CC3)C(=O)C2c2ccc(OC(C)C)c(OC)c2)cc1OC (stereo not given) | -7.3% | -12.0%
COc1ccc2cc3cc(C(=O)NCc4ccccc4OC)oc3nc2c1 | -13.3% | -10.2%
CCCc1ccc(NC(=O)c2ccc3c(c2)NC(=O)CS3)cc1 | 76.8%[activator] | 4.9%
O=C(O)Cn1cnnn1 | -16.1%[11.5 µM] | -2.0%
CCOC(=O)CCn1cnc2onc(-c3ccccc3Cl)c2c1=O | 149.8%[activator] | 62.7%[activator]
COCc1cc(C)nc2sc(C(=O)Nc3ccc(OC(F)(F)F)cc3)c(N)c12 | 14.8% | -0.9%
Cc1ccc(CNC(=O)C2CCN(S(=O)(=O)c3ccc4[nH]c(=O)ccc4c3)CC2)cc1 | 11.0% | -1.7%
Cc1cc2oc(C(=O)NCC(c3cccs3)N3CCCC3)cc(=O)c2cc1Cl (stereo not given) | -25.8% | -10.4%
CNC(=O)C(C)S(=O)(=O)Cc1cc(Cl)c2c(c1)OCO2 (stereo not given) | -8.3% | -10.9%
CCOC1CCN(C(=O)c2ccccc2-c2ncc(-c3ccc(C)cc3)o2)CC1 | -10.1% | 16.0%
Cc1ccc(C(=O)C(C)OC(=O)C23CC4CC(CC(O)(C4)C2)C3)cc1 (stereo not given) | 66.0%[activator] | 12.2%
CCN1C(=O)c2ccccc2Sc2ccc(NC(=O)Nc3cc(C)cc(C)c3)cc21 | u | u
CC(C)NCC(=O)NC(=O)NC(C)C | 37.2%[activator] | -12.4%[1.06 µM]
O=C(CCc1ncc(-c2ccc(Cl)cc2)o1)NC12CC3CC(CC(C3)C1)C2 | 7.7% | 3.4%
CCN(CC)c1ccc(NC(=O)CCc2nc3cccnc3n2Cc2cccs2)c(C)c1 | 9.6% | -6.8%
COc1ccc(C2CC(=O)c3cc(-c4nc(-c5ccc(Cl)cc5)c(C)s4)c(=O)[nH]c3C2)cc1 (stereo not given) | -6.1% | -7.3%
COc1ccc(NC(=O)C2CCC(CNS(=O)(=O)c3ccc(Br)s3)CC2)cc1OC (stereo not given) | -11.8% | -2.3%
COc1ccccc1N1CCN(S(=O)(=O)c2ccc(-c3ccno3)cc2OC)CC1 | -14.0% | 22.1%
CCOc1ccccc1C1C(C(=O)Nc2ccccc2)=C(C)Nc2nc(-c3ccccc3)nn21 (stereo not given) | -13.3% | -9.8%
O=C(COc1ccc(Cl)cc1Cl)Nc1ccc2c(c1)N(C(=O)c1cccnc1)CCC2 | -13.5% | -23.5%
COc1ccc(Nc2nc(N)c(C(=O)c3ccc(F)cc3)s2)cc1 | 103.0%[activator] | 13.8%
COCCNC(=O)C1CCCN(C(=O)c2cc3ccccc3[nH]2)C1 (stereo not given) | 4.9% | 2.4%
O=C(Nc1ccc(C(F)(F)F)cc1)C1CCC(CNS(=O)(=O)c2cccc3nsnc23)CC1 (stereo not given) | -17.0% | -14.2%
COc1ccccc1C(=O)Nc1ccc2oc(-c3ccccc3F)cc(=O)c2c1 | 96.9%[activator] | 11.5%
COc1ccc(C(=O)O)cc1S(=O)(=O)Nc1cc(Cl)ccc1OCC(F)(F)F | -10.9% | 11.1%
CSc1ccc(CNC(=O)c2ccc3c(c2)N(C)C(=O)C2CCCCN32)cc1 (stereo not given) | 16.8% | 42.2%[activator]
Cc1ccc(-n2nnnc2CNC(=O)c2ccccc2S(C)(=O)=O)cc1C | -8.6% | -7.3%
COc1ccccc1OCC(=O)Nc1cc(-c2ccc(Cl)cc2)no1 | 23.7% | -4.9%
Cc1nnc(NC(=O)c2ccccc2)s1 | 77.3%[activator] | 12.5%
COCCCNC(=O)c1cnc2sc(N3CCCCC3)nn2c1=O | -5.5% | -4.8%
Cn1c(=O)[nH]c2cc(-c3noc(-c4cccc(Cl)c4)n3)ccc21 | 13.9% | -1.0%
CCOc1ccc(CNC(=O)CN2C(=O)CSc3ccc(S(=O)(=O)N4CCOCC4)cc32)cc1OC | -11.3% | -1.6%
Cc1ccc(S(=O)(=O)c2nnn3c2nc(NC2CCCCC2)c2sccc23)cc1 | 0.8% | 71.8%[activator]
O=S(=O)(NCc1ccnc(OCc2ccccc2)c1)N1CCCCC1 | 0.0% | 52.8%[activator]
COc1ccc(-c2cc(-c3ccccc3)nc(NC(=O)CN3CCCCCC3)n2)cc1 | 1.3% | 13.2%
CC(=O)c1cc(C)cc(C(C)=O)c1O | -7.0% | -3.8%
Cc1ccc(C)c(Cn2nnc(C(=O)NCc3ccc(Cl)cc3Cl)c2N)c1 | -19.3% | -12.3%
N#Cc1nc(-c2ccc(S(=O)(=O)N3CCCCCC3)cc2)oc1NCc1ccco1 | -2.2% | 60.2%[activator]
Cc1ccnc(SCCn2c(N3CCN(CCO)CC3)nc3c2c(=O)n(C)c(=O)n3C)n1 | 80.2%[activator] | 9.0%
CNC(=O)NC(=O)CSc1nc(NC2CC2)c2ccccc2n1 | 8.0% | 0.0%
COc1ccccc1NC(=O)c1c(NCc2ccc(C)o2)sc2c1CCC(C)C2 (stereo not given) | -15.3% | -6.5%
COc1cccc(C(=O)COc2ccc(F)cc2Cl)c1 | 0.0% | 26.9%
O=C(c1ccc(Cn2cncn2)cc1)N1CCN(c2ccccc2)CC1 | 16.4% | -4.6%
COc1cc(SC)ccc1C(=O)OC(C)C(=O)c1ccc(C)cc1 (stereo not given) | 111.3%[activator] | 23.0%
O=C1/C(=C/c2ccc3ccccc3c2)Cc2ccccc21 | 102.4%[activator] | 28.2%
CCN(CC)CCn1c2c(c(SCC(=O)Nc3cccc(C(F)(F)F)c3)nc1=O)CCC2 | -5.8% | -13.0%
Cc1cccc(OCc2nc(C#N)c(NCCc3ccccc3)o2)c1 | 52.8%[activator] | 26.7%
C=CCNC(=O)Nc1cc(C(=O)NC)ccc1Cl | 18.7% | 22.3%
COC(=O)C1=C(C)N(CC(C)C)C(=O)NC1c1ccc(Br)s1 (stereo not given) | -11.1% | -5.2%

(cont.)
SMILES | 2A firefly | StopGo RLuc
COc1ccc(C2=NS(=O)(=O)N(C)C(C(=O)N(C)Cc3ccccc3)=C2)cc1OC | 0.8% | 49.6%[activator]
COc1ccc(CNC(=O)c2cc(-c3ccc(OC)cc3)nc3n[nH]c(-c4cccc([N+](=O)[O-])c4)c23)cc1 | 0.0% | 3.4%
O=C(O)COc1ccc2c(=O)c(Oc3ccc(Cl)cc3)coc2c1 | u | u
Cc1cc2nc(/C=C/c3ccc(C(F)(F)F)cc3)sc2cc1C | 0.0% | 7.4%
Cc1c(CC(=O)O)c(=O)oc2c(C)c(OCc3ccc(F)cc3)ccc12 | 0.0% | 5.9%
COc1ccc(-c2cc(C(F)(F)F)c(C#N)c(SCC(=O)Nc3cccc(C)c3)n2)cc1 | -19.5% | -12.0%
COc1ccccc1NC(=O)CSc1nncn2c1cc1sccc12 | 0.9% | -8.5%

Outcome played no part in choosing rows, and some 0.55% of all compounds hit somewhere here.
